GFP derepression: epigenetic GFP locus derepression in mouse cells; mouse C127i GFP locus derepression, cytometry, 30 h; Potency, µM (series often up to 46.1 µM), for the others: at the top dose GFP derepression (activation); hit rate 0.09% among 68,000; AID 597; also: % of control where 0% means no effect
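Read-out is the number of GFP-positive cells, scored as fluorescent objects 20 to 120 um wide, reflecting derepression of a silenced CMV-GFP reporter in murine C127i cells after 30 h compound exposure at 37 C.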
HBB splicing: modulators of hemoglobin beta chain splicing. Potency, µM (top dose mostly 46.1 µM), inactives show at the highest dose activation, most hits filed as activators. hit rate 0.06% among 65,000. AID 925. HBB splicing reporter cell assay, activation; EGFP reporter with mutant IVS2-654 intron; response scale: normalised to 500 nM splice-correcting PNA; also: potency is read from the fitted curve at half-maximal effect; 0% is about no effect
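Compounds were applied for 2 days to HeLa EGFP-654 cells, 500/well in Optimem with 2% FCS. The reporter's EGFP is disrupted by mis-splicing of beta-globin intron IVS2-654. Readout: summed well GFP fluorescence from 488 nm laser scanning; reference was 500 nM antisense […] 654 PNA.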
Fluorescein fluor: compound autofluorescence in fluorescein spectral region. Compound autofluorescence, 480/540 nm, fluorescein-equivalent; stronger effect = higher value. max fluorescein-equivalent concentration, M. hit rate 0.91% among 59,000. AID 593; in the data active = max fluorescein-equivalent concentration above about 10 nM; inconclusive = between about 1.1 nM and that limit
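Read-out is intrinsic compound fluorescence at 480/540 nm (excitation/emission), expressed as dye-equivalent concentration using a fluorescein standard series run on every plate. Compounds sat 15 min at room temperature in 100 mM Tris, pH 8.0.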
Hsp90 Hop PPI: changes Hsp90-Hop TPR2A binding signal, up or down. AlphaScreen TPR2A-His6 binding biotin-Hsp90 C-terminal peptide. Potency, µM (series often up to 57 µM), for the others: top-dose activity change, negative = inhibition. hit rate 0.44% among 71,000. AID 595; active = well fitted curve in either direction with a large enough effect; inconclusive = small, poorly fitted or top-dose-only effect, or another doubt; also: potency is read from the fitted curve at half-maximal effect; % is scaled to controls: 0 for no effect and ±100 for the full control effect; many of its hits are not listed in these tables
TexasRed autofl: compounds fluorescent in Texas Red spectral region; Compound fluorescence, Texas Red channel, 547/618 nm; stronger effect = higher value; hit rate 0.06% among 59,000; max dye-equivalent concentration, M; in the data active = max dye-equivalent concentration above about 10 nM; inconclusive = between about 1.1 nM and that limit
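Dye-equivalent concentrations come from scaling compound signal (ex 547, em 618 nm) to six Texas Red standard concentrations run on every plate, after 15 min room-temperature incubation in pH 8.0 Tris (100 mM).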
CRE-bla Fsk: modulators of forskolin-stimulated CRE signaling in CHO cells; Potency, µM (titrated, usually from 38.2 µM), without a hit: at the top dose activity change, negative = inhibition, actives largely listed as activators; CHO CRE-bla reporter (cAMP response element driving beta-lactamase), forskolin EC10, beta-lactamase ratio; hit rate 2.5% among 71,000; active = well fitted activation curve with a large enough effect in the signal ratio, with a control signal flat, not every such curve was filed as active; inconclusive = small, poorly fitted or top-dose-only effect, or effect the other way, or a change in a side signal; the % refers to the signal ratio; also: potency is read from the fitted curve at half-maximal effect; % of control where 0% means no effect
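Forskolin analogue NKH 477 at EC10 stimulated CRE-driven beta-lactamase in CHO cells alongside compound dilution series. Beta-lactamase was measured with CCF4, excitation 405 nm, emission ratio 460/530 nm.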
Ub-GFP proteasome: inhibits proteasome, raising ubiquitin-GFP reporter fluorescence; Ubiquitin-GFP reporter cells, proteasome inhibition, GFP fluorescence; response scale: untreated = 0%, 10 µM MG-132 = 100%; AID 526; 67,000 tested, under 10 active; Potency, µM (highest dose often 45.9 µM), without a hit: at the highest dose activation (GFP accumulation), most hits filed as activators; active = well fitted activation curve with a large enough effect, not every such curve was filed as active; inconclusive = small, poorly fitted or top-dose-only effect, or another doubt; inactive = no such curve, though single readings can be large or run the other way; also: potency is read from the fitted curve at half-maximal effect
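U2OS cells expressing ubiquitin(G76V)-GFP, seeded overnight in 0.5% FBS medium, then treated 4 hr at 37 C across 46 uM to 2.9 nM. GFP-positive cells counted by laser cytometry (488 ex/515 em); %activity scaled between basal and 10 uM MG-132.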
ERK AVP block: blocks ERK signaling stimulated by vasopressin; HEK293-V1b, vasopressin-stimulated pERK AlphaScreen; Potency, µM (titrated, usually from 57.5 µM), for inactives: at the highest dose activity, negative = inhibition, actives largely listed as inhibitors; hit rate 0.99% among 72,000; also: potency is read from the fitted curve at half-maximal effect; % is scaled to controls: 0 for no effect and ±100 for the full control effect; nearly all actives have a fitted effect of over 55% in size
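HEK293 cells stably expressing V1b receptor, seeded overnight in 1% FBS, were treated with compounds for 30 min at 37C, then stimulated 5 min with 25 nM vasopressin; phospho-ERK read by AlphaScreen SureFire after lysis.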
Numbers without * were called inactive; i = inactive; ? = inconclusive; . = not tested or not shown; & = joins results of further samples; ! = a repeat was not active; [ ] = dose if it differs, or a comment. Unless noted, calls follow the shape of the dose curve; as a rule, active = well fitted curve in the direction sought with a large enough effect; inconclusive = small, poorly fitted or top-dose-only effect, or another doubt; inactive = no such curve, though single readings can be large; an effect the other way counts as inactive or inconclusive.

Assay codes – A = GFP derepression; B = HBB splicing; C = Fluorescein fluor; D = Hsp90 Hop PPI; E = TexasRed autofl; F = CRE-bla Fsk; G = Ub-GFP proteasome; H = ERK AVP block
NCCc1cnc[nH]1
  A: -2%; B: 1.2%; C: ?; D: -1%; E: i; F: -2%; G: -3%; H: 4%&-10%
C[C@@](N)(Cc1ccc(O)c(O)c1)C(=O)O
  A: 1%[20.6 µM]; B: 3.2%[20.6 µM]; C: ?; D: ?; E: i; F: -4%[17.1 µM]; G: 6%[20.5 µM]; H: ?
CC(C)[N+]1(C)C2CCC1CC(OC(=O)C(CO)c1ccccc1)C2 (centres undefined)
  A: .; B: .; C: .; D: .; E: .; F: .; G: .; H: 2%
O=C1C(CCS(=O)c2ccccc2)C(=O)N(c2ccccc2)N1c1ccccc1 (centres undefined)
  A: -4%&2%[20.6 µM]; B: 1.5%[20.6 µM]; C: ?; D: -4%[26 µM]; E: i; F: -10%[17.1 µM]; G: -2%[20.5 µM]; H: -2%
CN(C)CC[C@@H](c1ccc(Cl)cc1)c1ccccn1
  A: .; B: .; C: .; D: .; E: .; F: .; G: .; H: 7%
CC(C)[N+]1(C)[C@@H]2CC[C@H]1CC(OC(=O)C(CO)c1ccccc1)C2 (some centres undefined)
  A: -4%[20.6 µM]; B: .; C: i; D: .; E: i; F: .; G: .; H: .
COc1cccc2c1C(=O)c1c(O)c3c(c(O)c1C2=O)C[C@](O)(C(=O)CO)C[C@@H]3O[C@H]1C[C@H](N)[C@@H](O)[C@H](C)O1
  A: 0%[9.22 µM]; B: 0.9%[9.22 µM]; C: i; D: -3%[11 µM]; E: ?; F: 6%[7.6 µM]; G: 1%[9.17 µM]; H: .
CCOc1ccc(NC(=O)Nc2cc(C)ccc2OC)cc1
  A: -7%; B: -0.5%; C: i; D: -5%; E: ?; F: 1%; G: 5%; H: 7%
CCCNCC(O)COc1ccccc1C(=O)CCc1ccccc1 (centres undefined)
  A: 2%[20.6 µM]; B: .; C: i; D: .; E: ?; F: .; G: .; H: 27%
O=C(O)c1ccccc1O
  A: .; B: .; C: .; D: .; E: .; F: .; G: .; H: 12%

Going on with the list:
Assay codes – A = GFP derepression; B = HBB splicing; C = Fluorescein fluor; D = Hsp90 Hop PPI; E = TexasRed autofl; F = CRE-bla Fsk; G = Ub-GFP proteasome; H = ERK AVP block
Cc1cnc(C(=O)NCCc2ccc(S(=O)(=O)NC(=O)NC3CCCCC3)cc2)cn1
  A: 0%[20.6 µM]; B: 0.6%[20.6 µM]; C: ?; D: -2%[26 µM]; E: i; F: -1%[17.1 µM]; G: 1%[20.5 µM]; H: 5%
CNNCc1ccc(C(=O)NC(C)C)cc1
  A: 2%[20.6 µM]; B: -2.1%[20.6 µM]; C: i; D: -3%[26 µM]; E: i; F: -1%[17.1 µM]; G: -6%[20.5 µM]; H: 16%[25.7 µM]
Nc1ccc(S(N)(=O)=O)cc1
  A: 0%[20.6 µM]; B: 3.0%; C: ?; D: 3%; E: i; F: 0%; G: -9%[20.5 µM]; H: -7%
O=C(NCC1CCCCN1)c1cc(OCC(F)(F)F)ccc1OCC(F)(F)F (centres undefined)
  A: 6%[20.6 µM]; B: .; C: ?; D: .; E: i; F: .; G: .; H: .
CNC[C@H](O)c1cccc(O)c1
  A: -4%[20.6 µM]; B: 1.0%; C: ?; D: -2%; E: i; F: -5%; G: 0%; H: -7%
O=C(c1ccc(OCCN2CCCCC2)cc1)c1c(-c2ccc(O)cc2)sc2cc(O)ccc12
  A: -1%[20.6 µM]; B: -0.6%; C: i; D: -10%[26 µM]; E: ?; F: -17%[17.1 µM]; G: 7%[20.5 µM]; H: ?
CO[C@@H]1C=CO[C@]2(C)Oc3c(C)c(O)c4c(O)c(c(C=NN5CCN(C)CC5)c(O)c4c3C2=O)NC(=O)C(C)=CC=C[C@H](C)[C@H](O)[C@H](C)[C@H](O)[C@H](C)[C@H](OC(C)=O)[C@H]1C
  A: -1%[20.6 µM]; B: -0.4%[20.6 µM]; C: ?; D: -13%[26 µM]; E: i; F: -6%[17.1 µM]; G: -4%[20.5 µM]; H: ?
COC(=O)[C@@H]1[C@H]2C[C@H]3c4[nH]c5cc(OC)ccc5c4CCN3C[C@@H]2C[C@@H](OC(=O)c2cc(OC)c(OC)c(OC)c2)[C@@H]1OC
  A: 0%[9.22 µM]; B: ?; C: ?; D: ?; E: i; F: ?; G: -4%&-1%; H: .
CCOc1ccc(-c2cc(C(=O)N3CCN(c4ccccn4)CC3)c3ccccc3n2)cc1
  A: 0%; B: -0.3%; C: i; D: -4%; E: i; F: -3%; G: 7%; H: ?
COc1ccc2cc(C(C)C(=O)O)ccc2c1 (centres undefined)
  A: .; B: .; C: .; D: .; E: .; F: .; G: .; H: 8%

(list continues)
Assay codes – A = GFP derepression; B = HBB splicing; C = Fluorescein fluor; D = Hsp90 Hop PPI; E = TexasRed autofl; F = CRE-bla Fsk; G = Ub-GFP proteasome; H = ERK AVP block
O=C(O)CN(CCN(CC(=O)O)CC(=O)O)CC(=O)O
  A: .; B: .; C: .; D: .; E: .; F: .; G: .; H: -6%
CCCCCCCCCCCCOS(=O)(=O)O
  A: .; B: -0.5%&-0.7%; C: .; D: 1%&0%; E: .; F: ?; G: .; H: ?
Cc1cc(C(=O)OCC(=O)c2ccc3c(c2)OCCO3)c(C)o1
  A: 0%; B: -0.5%; C: ?; D: 1%; E: i; F: ?; G: 1%; H: -2%
COc1ccccc1-c1nc(-c2ccccn2)no1
  A: -2%; B: -0.4%; C: .; D: -3%; E: .; F: 3%; G: 9%; H: 0%
NNc1nncc2ccccc12
  A: 2%[20.6 µM]; B: -0.3%[20.6 µM]; C: ?; D: 13µM*!; E: i; F: -5%[17.1 µM]; G: 2%[20.5 µM]; H: -13%
c1ccc(-c2noc(-c3ccncc3)n2)nc1
  A: -3%; B: -3.8%[0.0738 µM]; C: .; D: -5%[11 µM]; E: .; F: ?; G: 26%[9.17 µM]; H: 2%
COC(=O)[C@H]1[C@H]2C[C@@H]3c4[nH]c5cc(OC)ccc5c4CCN3C[C@H]2C[C@@H](OC(=O)c2cc(OC)c(OC)c(OC)c2)[C@@H]1OC
  A: .; B: ?; C: .; D: -13%; E: .; F: -7%; G: .; H: ?
Cc1ccc(/C(=C/CN2CCCC2)c2ccccn2)cc1
  A: 0%; B: -1.8%[20.6 µM]; C: ?; D: -1%; E: ?; F: -25%; G: 5%; H: 12%
Cc1c(N)c(=O)n(-c2ccccc2)n1C
  A: 2%[20.6 µM]; B: -1.3%[20.6 µM]; C: i; D: -3%[26 µM]; E: ?; F: 0%[17.1 µM]; G: 2%[20.5 µM]; H: 2%

No new results follow: eight of the compounds above.
Assay codes – A = GFP derepression; B = HBB splicing; C = Fluorescein fluor; D = Hsp90 Hop PPI; E = TexasRed autofl; F = CRE-bla Fsk; G = Ub-GFP proteasome; H = ERK AVP block
NCCc1cnc[nH]1
  A: -2%; B: 1.2%; C: ?; D: -1%; E: i; F: -2%; G: -3%; H: 4%&-10%
C[C@@](N)(Cc1ccc(O)c(O)c1)C(=O)O
  A: 1%[20.6 µM]; B: 3.2%[20.6 µM]; C: ?; D: ?; E: i; F: -4%[17.1 µM]; G: 6%[20.5 µM]; H: ?
CC(C)[N+]1(C)C2CCC1CC(OC(=O)C(CO)c1ccccc1)C2 (centres undefined)
  A: .; B: .; C: .; D: .; E: .; F: .; G: .; H: 2%
O=C1C(CCS(=O)c2ccccc2)C(=O)N(c2ccccc2)N1c1ccccc1 (centres undefined)
  A: -4%&2%[20.6 µM]; B: 1.5%[20.6 µM]; C: ?; D: -4%[26 µM]; E: i; F: -10%[17.1 µM]; G: -2%[20.5 µM]; H: -2%
CN(C)CC[C@@H](c1ccc(Cl)cc1)c1ccccn1
  A: .; B: .; C: .; D: .; E: .; F: .; G: .; H: 7%
CC(C)[N+]1(C)[C@@H]2CC[C@H]1CC(OC(=O)C(CO)c1ccccc1)C2 (some centres undefined)
  A: -4%[20.6 µM]; B: .; C: i; D: .; E: i; F: .; G: .; H: .
COc1cccc2c1C(=O)c1c(O)c3c(c(O)c1C2=O)C[C@](O)(C(=O)CO)C[C@@H]3O[C@H]1C[C@H](N)[C@@H](O)[C@H](C)O1
  A: 0%[9.22 µM]; B: 0.9%[9.22 µM]; C: i; D: -3%[11 µM]; E: ?; F: 6%[7.6 µM]; G: 1%[9.17 µM]; H: .
CCOc1ccc(NC(=O)Nc2cc(C)ccc2OC)cc1
  A: -7%; B: -0.5%; C: i; D: -5%; E: ?; F: 1%; G: 5%; H: 7%

The list is partial; count on the stated rates, not on these rows.
